Source: PubChem
KCNQ2 block – KCNQ2 potassium channel inhibitors, primary screen, cell-based, CHO-K1, FluxOR thallium flux, B-score (AID 2156) | 20 min; hits give low values; only compounds with negative scores are shown here; some inactives read as strong as hits | B-score at 10 µM | 310,000 tested, 1.1% active;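 active = fluorescence ratio B-score at most minus 3 library SDs, with starting brightness B-score within 2 library SDs, cut at about -5.5 in these data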
Target sequence (O88943 whole entry, looked up): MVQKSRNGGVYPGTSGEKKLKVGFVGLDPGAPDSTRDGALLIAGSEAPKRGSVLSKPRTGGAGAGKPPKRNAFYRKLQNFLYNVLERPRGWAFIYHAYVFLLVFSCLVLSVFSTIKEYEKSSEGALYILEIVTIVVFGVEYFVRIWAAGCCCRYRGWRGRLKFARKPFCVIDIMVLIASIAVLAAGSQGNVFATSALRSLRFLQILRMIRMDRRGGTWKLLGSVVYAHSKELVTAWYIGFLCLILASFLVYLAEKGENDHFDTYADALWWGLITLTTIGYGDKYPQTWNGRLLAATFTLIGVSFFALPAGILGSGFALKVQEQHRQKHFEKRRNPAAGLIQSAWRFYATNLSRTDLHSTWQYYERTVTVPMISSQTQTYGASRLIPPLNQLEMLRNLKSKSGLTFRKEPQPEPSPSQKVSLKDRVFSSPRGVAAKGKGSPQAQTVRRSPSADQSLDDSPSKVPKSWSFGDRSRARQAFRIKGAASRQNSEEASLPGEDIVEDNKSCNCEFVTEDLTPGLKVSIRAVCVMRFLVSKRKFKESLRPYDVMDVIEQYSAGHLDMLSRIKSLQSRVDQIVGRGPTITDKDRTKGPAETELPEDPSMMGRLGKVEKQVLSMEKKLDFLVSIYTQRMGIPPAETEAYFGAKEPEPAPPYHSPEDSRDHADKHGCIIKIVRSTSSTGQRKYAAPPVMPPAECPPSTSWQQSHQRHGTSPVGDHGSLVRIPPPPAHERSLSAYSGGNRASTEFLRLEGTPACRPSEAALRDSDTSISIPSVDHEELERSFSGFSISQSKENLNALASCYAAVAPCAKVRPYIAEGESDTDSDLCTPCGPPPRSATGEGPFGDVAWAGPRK
KCNQ2 block baseline – recorded beside KCNQ2 block, whose call it bears; B-score; measured here: initial fluorescence intensity artifact check;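 brightness before thallium and not channel activity; 0 = typical well and far values either way flag optical interference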
* marks the source's active call; other numbers are inactive results; i = inactive. The list is partial; rates above refer to the full screens.

KCNQ2 block | KCNQ2 block baseline | Molecule
i | 0.07 | C=C(C)C1CC=C(C)/C(=N/NC(=O)c2cccs2)C1 (stereo not drawn)
i | 2 | CS(=O)(=O)n1nc(-c2ccc(Cl)cc2)nc1SCc1ccccc1
-9* | -0.01* | Cc1sc2nc(SCc3nc(-c4ccccc4)no3)n(-c3ccccc3)c(=O)c2c1C
i | -0.85 | Cc1ccc(/C=C2\SC(=S)N(c3c(C)n(C)n(-c4ccccc4)c3=O)C2=O)cc1
i | -0.18 | CN(C(=O)Nc1ccccc1)n1cnc2ccccc2c1=O
i | 2.5 | Cc1ccc(C)c(S(=O)(=O)N2CCN(C(=O)C(C)Sc3ccccc3)CC2)c1 (stereo not drawn)
i | -1.4 | C=CCN(CC=C)S(=O)(=O)c1ccc(NC(=S)NC(=O)Cc2ccc(OC)cc2)cc1
i | -0.46 | Cc1nnc(SCC(=O)Nc2ncc(Cc3ccc(F)cc3)s2)n1N
-9.7* | 0.4* | CC(C)c1ccc2c(c1)C(N1CCNCC1)Cc1ccc(F)cc1S2 (stereo not drawn)
i | -0.19 | CCOC(=O)c1c(C)oc2cc(Br)c(OC)cc12
i | 3.5 | COc1ccc(Nc2nc(N)nc(CN3CCc4ccccc4C3)n2)cc1
i | -0.87 | Cc1ccccc1C(=O)O/N=C1\CCS(=O)(=O)c2sccc21
i | 2 | Cc1cccc(Cc2c(C)nc3nc(SCC(=O)NCc4ccco4)nn3c2C)c1
i | 0.87 | Cc1c(Cc2ccccc2)c(=O)oc2c(C)c(OCC(=O)NCc3ccccn3)ccc12
i | -0.11 | O=C(CN1C(=O)COc2ccc(Cl)cc21)N1CCOCC1
i | -0.6 | CCOC(=O)C1CCCN(C(=O)c2cn(C)c(=O)c3cc(OC)c(OC)cc23)C1 (stereo not drawn)
i | 0.51 | CCn1cc(C(=O)O)c(=O)c2cnc(N3CCN(C(=S)NC(=O)c4ccccc4Cl)CC3)nc21
i | -0.14 | COc1ccc(C2CC(=O)Nc3cc(OC)c(OC)cc32)cc1Br (stereo not drawn)
i | -0.02 | CCCOc1cccc(C(=O)N(Cc2cccs2)C2CCS(=O)(=O)C2)c1 (stereo not drawn)
i | 3 | CN(C)c1ccc(N2C(=NC(=O)CCc3ccccc3)SC3CS(=O)(=O)CC32)cc1 (stereo not drawn)
i | 0.02 | CCN(CC)c1ccc(N2C(=NC(=O)C3CCCO3)SC3CS(=O)(=O)CC32)cc1 (stereo not drawn)
i | 1.5 | Cc1ccccc1C(=O)NNC(=O)C12CC3CC(CC(C3)C1)C2
i | 0.68 | C/C(=N\NC(=O)c1ccn(C)n1)c1ccc(NC(=O)C2CCCC2)cc1
i | -0.56 | Cc1ccc(-n2c(-c3ccccc3)n[nH]c2=S)c(C)c1
i | -0.14 | CC(=O)c1ccc(NC(=O)C2CCCN2S(=O)(=O)c2ccc(F)cc2)cc1 (stereo not drawn)
i | -0.03 | O=C(N/N=C/c1cc([N+](=O)[O-])ccc1O)c1c[nH]c2ccccc12
i | -0.11 | Cc1cc(NC(=O)C(C)C)ncc1NC(=O)c1ccccn1
i | 84 | COc1ccc2c3c(cccc13)C(=O)CC2
i | -0.07 | CC(C)n1cc(C(=O)NC2CC(C)(C)Cc3c2cnn3-c2ccccc2)cn1 (stereo not drawn)
i | -0.38 | Cc1cccc(-c2nc3ccccc3c(=O)n2NC(=O)/C=C/c2ccc([N+](=O)[O-])cc2)c1

Entries of single compounds, quoted from the list:
`Cc1ccc(-n2c(-c3ccccc3)n[nH]c2=S)c(C)c1` as listed: KCNQ2 block: i; KCNQ2 block baseline: -0.56
`CN(C(=O)Nc1ccccc1)n1cnc2ccccc2c1=O` as listed: KCNQ2 block: i; KCNQ2 block baseline: -0.18

New compounds follow
KCNQ2 block | KCNQ2 block baseline | Molecule
i | -0.13 | Cc1ccc(C)c(OCCC(=O)N2CCN(S(=O)(=O)c3cc(C)ccc3C)CC2)c1
i | 1.1 | Cc1ccc(OCCC(=O)OCC(=O)N2CCN(S(=O)(=O)c3ccc(C)cc3C)CC2)cc1
i | 0.3 | COc1ccc(C(CNC(=O)c2oc3c(Cl)cccc3c2C)N2CCCC2)cc1 (stereo not drawn)
i | 0.22 | COc1cc(/C=C(/NC(=O)c2ccccc2)C(=O)Nc2cccc(O)c2)c([N+](=O)[O-])cc1OC
i | 0.05 | O=C(CSc1nnc(CNC(=O)c2ccc(F)cc2)o1)NCc1ccc2c(c1)OCO2
i | -0.08 | C/C(CCN1CCc2nc(-c3ccccc3)c(-c3ccccc3)cc2C1)=N\O[C@@H](C)c1cc(-c2c(C)cc(C)cc2C)no1
i | -1.2 | Cc1nc(C2CCC3C4CCC5=CC(=O)CC[C@]5(C)C4CC[C@]23C)cs1 (stereo partly drawn)
i | 2.7 | O=C(NCC1CCCO1)C1CCN(C2CCN(C3CCCCCC3)CC2)CC1 (stereo not drawn)
i | 0.4 | NC(=O)CC(NC(=O)c1ccc(Br)cc1)c1ccc(N2CCN(c3ccc(F)cc3)CC2)c([N+](=O)[O-])c1 (stereo not drawn)
i | 0.23 | C=CCn1c(SCC(=O)N(CCOC)c2c(N)n(CCCC)c(=O)[nH]c2=O)nnc1-c1ccc(Cl)cc1
i | -0.06 | COc1cccc2c(Cl)c(CCCl)c(C)nc12
i | 0.32 | CCC(=O)c1ccc(OCc2ccc(C(=O)c3ccccc3)cc2)cc1
i | 0.92 | CC(=O)N1c2ccc(S(=O)(=O)NCCC(=O)NCc3ccc(N(C)C)cc3)cc2CC1C (stereo not drawn)
i | 0.04 | COc1ccc(CN2CCc3ccccc3C2)c(OC)c1OC
i | -1.2 | O=C(NN1C(=O)C2C3C=CC(O3)C2C1=O)c1ccccc1 (stereo not drawn)
i | -1.5 | COc1cccc(NC(=S)N(Cc2cccc(Br)c2)CC2CCC(C(=O)O)CC2)c1 (stereo not drawn)
i | -0.16 | Cc1ccc(NC(=O)Cn2nc(C(=O)Nc3ccc(C)cc3)ccc2=O)cc1
-6.8* | -0.86* | COc1ccc(/C=C/CN2CCCC(CO)(Cc3cccc(Cl)c3)C2)cc1 (stereo not drawn)
i | -0.77 | O=C(O)CCCCNS(=O)(=O)c1ccc(Cl)c(C(F)(F)F)c1
i | -1.2 | C[C@@]12C(=O)N(c3ccc(C(F)(F)F)cc3)C(=O)N1[C@@H]1c3ccccc3OC[C@@H]1[C@H]2c1ccccc1
i | -0.42 | COc1ccc(S(=O)(=O)Nc2cc3c4c(oc3c3ccccc23)CCCC4=O)cc1
i | -0.22 | O=C(CSc1ncnc2scc(-c3ccccc3)c12)NC1CCS(=O)(=O)C1 (stereo not drawn)
i | 1.5 | Cc1nn(Cc2ccc(Cl)cc2)c(Cl)c1/C=N/NC(=O)CNc1ccccc1F
i | -0.01 | CCOC(=O)Cc1csc(SCC(=O)Nc2sc3c(c2C(N)=O)CCC3)n1
i | 0.11 | CN(CC(=O)Nc1ccccc1Cl)C(=O)COC(=O)CCN1C(=O)C2CC=CCC2C1=O (stereo not drawn)
i | -1.4 | COC(=O)C1=CN(C2CCCCC2)C=C(C(=O)OC)C1c1ccc2c(c1)OCO2
i | -0.71 | COCCNC(=O)c1nn2c(C(F)(F)F)cc(-c3ccccc3)nc2c1Cl
i | -0.13 | COc1ccc(Oc2nccc(-c3ccc(Cl)cc3)n2)cc1
i | 0.6 | CCC1CCc2sc(C(=O)O)cc2C1 (stereo not drawn)
i | 0.82 | Cc1cc(C)c2c(N)c(C(=O)C(C)(C)C)sc2n1
i | 0.06 | CC(=O)NNC(=O)CCn1c2c(c3ccccc31)CCCC2
-6* | -1.8* | CCOC(=O)c1c(-c2ccc(C)o2)csc1NC(=O)COC(=O)c1cccs1
i | 1.3 | Cc1nn(C)c(C(=O)N2CCc3ccccc32)c1Br
i | -0.79 | O=C(Nc1ccccc1O)c1ccc(NS(=O)(=O)c2cccc3cccnc23)cc1
i | 0.79 | O=C(NCCCN1CCCCC1)c1ccc2c(c1)ncn2C1CCCC1
i | 0.53 | CC1CC(C)CN(C(=O)CSc2nc(Cc3cccs3)nc3ccccc23)C1 (stereo not drawn)
i | -0.73 | CCn1c(SCC(=O)N2CCCCC2)nc2c(c1=O)SCC2
i | 0.23 | COCCCN1C(=O)c2ccccc2C1C(=O)NC1CCCCCC1 (stereo not drawn)
i | 0.09 | O=C(NC1CCCc2ccccc21)c1ccc(F)cc1F (stereo not drawn)
i | 0.47 | O=C(Nc1ccc(N2CCOCC2)cc1)c1cccc2ccccc12
i | 0.35 | CN(CC(=O)Nc1ccc(C#N)cc1)Cc1ccc(Cl)c(Cl)c1
i | -0.07 | CC(C)(C)C(=O)N=C1SC2CS(=O)(=O)CC2N1c1ccc2c(c1)OCO2 (stereo not drawn)
i | -0.15 | C/C(=N\NC(=O)c1ccc(CSc2nc(C)cc(C)n2)cc1)C1CCCCC1
i | -1.7 | O=C(NCc1ccccc1)C1CC(=O)N(C2CCCCCC2)C1 (stereo not drawn)
i | 0.21 | COc1ccc(OC)c(C(c2nnnn2C2CCCC2)N2CCN(c3ccccc3F)CC2)c1 (stereo not drawn)
i | -1.4 | O=C1/C(=C\c2ccc(-c3ccccc3Cl)o2)SC(=S)N1CC1CCCO1 (stereo not drawn)
i | 1.7 | CN(C)S(=O)(=O)Oc1ccsc1C(=O)Nc1cccc(Cl)c1
i | -0.02 | O=C(O)CCc1nn2c3ccccc3n(CC(=O)c3ccccc3)c2nc1=O
i | 1.8 | COc1ccccc1C(=O)NC(CCSC)C(=O)NC1CCCCCC1 (stereo not drawn)
i | 1.8 | COc1cccc(C2=NN(C(=O)CCCC(=O)O)C(c3cccs3)C2)c1 (stereo not drawn)
i | 3.6 | O=C(Cn1cnc2c(oc3ccccc32)c1=O)NCc1ccccc1
i | -0.8 | CCCn1c(C(C)Nc2nc(-c3cc(Cl)c(N)c(Cl)c3)cs2)nc2cc(Cl)c(N3CCCCC3)cc21 (stereo not drawn)
i | -0.18 | COC(=O)c1cc(NS(=O)(=O)c2ccc(NC(C)=O)cc2)cc(C(=O)OC)c1
i | 0.86 | CCOc1ccc(CC2c3cc(OCC)c(OCC)cc3CCN2C(=O)c2cc(OC)c(OC)c(OC)c2)cc1OCC (stereo not drawn)
i | 0.28 | O=C(COC(=O)c1cccc(S(=O)(=O)N2CCc3ccccc32)c1)Nc1ncc(Cl)cc1Cl
i | -0.15 | Cc1ccc(C)c(N2CCN(CCCNC(=O)Cn3cc4c(n3)CCC(C)C4)CC2)c1 (stereo not drawn)
i | -2.6 | Clc1ccc(CN2CCC(Cc3ccccc3)CC2)cc1
i | -0.96 | COc1cccc(NC(=O)Cn2c3ccccc3c3nc4n(c(=O)c32)CCCS4)c1
i | 0.89 | Cc1cc(OCC(=O)Nc2ccc(OCc3ccccc3)cc2)nc(C(C)C)n1
i | 0.23 | COc1ccc(CCNC(=O)C(=O)NCC2CCCN2S(=O)(=O)c2ccc(OC)cc2)cc1 (stereo not drawn)

(cont.)
KCNQ2 block | KCNQ2 block baseline | Molecule
i | -1.3 | O=C(O)c1ccc2c3c(cccc13)C(=O)N(c1ccccc1)C2=O
i | -2 | Cc1ccc2occ(/C=N/NC(=O)c3ccccc3C)c(=O)c2c1
i | -0.47 | CCC(C)(C)n1nnnc1CN1CCN(C(c2ccccc2)c2ccccc2)CC1
i | 0.36 | O=C(COn1nnc2ccc(Cl)cc21)NCc1ccccc1
i | -0.54 | COc1ccc(NC(=O)COC(=O)c2cc(OC)c(OC)cc2NC(=O)c2ccco2)cc1OC
i | -0.29 | NC1=NC(c2cccc(Cl)c2)N(CCc2ccc(F)cc2)C(N)=N1 (stereo not drawn)
i | 1.6 | Cc1ccc(C2=C/C(=C/c3cccnc3)C(=O)O2)c(C)c1
i | -0.08 | CCCS(=O)(=O)N1CCCC(C(=O)Oc2ccc(Cl)cc2)C1 (stereo not drawn)
i | -0.7 | S=C(NC1CCCCC1)N1CCN(c2ccccn2)CC1
i | 1.4 | N#Cc1ccc(N2CCOCC2)nc1
i | -0.82 | O=C(Nc1ccc(OC(F)F)cc1)c1cc(S(=O)(=O)N2CCOCC2)ccc1F
i | 0.63 | COc1cc(NC(=S)NCc2ccc(S(N)(=O)=O)cc2)c(OC)cc1Cl
i | 0.53 | NNC(=O)c1[nH]c(-c2ccccc2)cc1-c1ccccc1
i | -0.7 | NS(=O)(=O)c1cccc(NC(=O)CSc2nn(-c3ccccc3)c(=S)s2)c1
i | 3.9 | COc1ccc(CC(=O)NCc2nnc(SCCOc3ccccc3)n2C)cc1
i | 1.4 | Cc1ccc(S(=O)(=O)N(Cc2ccccc2)c2ccccn2)cc1[N+](=O)[O-]
i | 0.8 | Cc1ccc(C(=O)Nc2c[nH]c(=O)[nH]c2=O)cc1
i | 1.2 | COc1ccc(NC(=O)c2cc(-c3cccs3)on2)cc1OC
i | 0.7 | Cc1ccc(NC(=O)CN2CCCN(S(=O)(=O)c3ccc(Br)s3)CC2)cc1
i | 0.45 | O=C(O)C1CCCCC1C(=O)Nc1cccc(C(=O)N2CCCCC2)c1 (stereo not drawn)

Random excerpt: three compounds from above
KCNQ2 block | KCNQ2 block baseline | Molecule
i | 0.53 | NNC(=O)c1[nH]c(-c2ccccc2)cc1-c1ccccc1
i | -0.54 | COc1ccc(NC(=O)COC(=O)c2cc(OC)c(OC)cc2NC(=O)c2ccco2)cc1OC
i | 0.7 | Cc1ccc(NC(=O)CN2CCCN(S(=O)(=O)c3ccc(Br)s3)CC2)cc1

A draw from above in order of formula weight, ascending.
KCNQ2 block | KCNQ2 block baseline | Molecule
i | 0.79 | O=C(NCCCN1CCCCC1)c1ccc2c(c1)ncn2C1CCCC1
i | 1.4 | Cc1ccc(S(=O)(=O)N(Cc2ccccc2)c2ccccn2)cc1[N+](=O)[O-]
i | -0.14 | COc1ccc(C2CC(=O)Nc3cc(OC)c(OC)cc32)cc1Br (stereo not drawn)
i | 3.9 | COc1ccc(CC(=O)NCc2nnc(SCCOc3ccccc3)n2C)cc1
